MgrA DNA FP = modulators of Staphylococcus aureus MgrA DNA binding | fluorescence polarization | inhibition, %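 (about 10 µg/mL by stock and volumes)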 | hit rate 0.13% among 84,000;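 active = above 50% in either of two replicates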;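 also: 0% = protein plus DNA without compound and 100% = DNA alone without protein; higher means less MgrA bound to DNA so lower polarization; one replicate is shown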
Sa helicase inh = S. aureus DNA helicase inhibition. purified S. aureus helicase, fluorescence unwinding assay; about half of the hits fall short of the stated cut. inhibition, %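 (tested at about 80 µM)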. hit rate 0.05% among 120,000;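 active = both duplicates at 50% or more, or one of them with a favoured structure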;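 also: 0% = mean of negative control wells and 100% = mean of positive control wells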
An asterisk follows results filed as active; · = no result given. Some of the compounds tested, so the mix of outcomes need not match the whole.

Values run as follows: MgrA DNA FP	Sa helicase inh
CC(C(=O)Nc1ccc(F)cc1Cl)N(C)CC1COc2ccccc2O1 (stereo not drawn)
    ·	-2
COc1cc(/C=C2\NC(=S)N(C)C2=O)ccc1OCc1ccccc1Cl
    3.2	-10
CCCN(Cc1nnc(-c2ccco2)o1)C(=O)c1ccccc1SCC(=O)N1CCCC1
    ·	-3
O=C(c1cccnc1)N1CCN(CCN2C(=O)C3C4C=CC(C4)C3C2=O)CC1 (stereo not drawn)
    0.6	0
O=c1[nH]c(=S)[nH]c(O)c1N=Nc1ccc(O)cc1
    2.3	9
Cc1cnc(Nc2nc3ccccc3o2)nc1C(=O)Nc1cccc(C(F)(F)F)c1
    ·	-6
CN(C=O)CP(=O)(O)CCc1ccccc1
    -1.3	-9
CCOC(=O)C1=C(C)NC(SCC(N)=O)=C(C#N)C1c1ccccc1 (stereo not drawn)
    3.0	-3
CC(=O)N/C(N)=N/c1nc2ccccc2s1
    ·	20
CSc1nc2ccccc2n1CN1CCN(Cc2cccs2)CC1
    ·	-13
NNc1ccc(Cl)c(C(=O)O)c1
    -0.6	1
CC(C)(C)NCC(=O)Nc1cc(C(C)(C)C)nn1-c1ccccc1
    ·	20
CC(=O)N1CCc2cc(C(=O)CN3CCN(Cc4ccccc4)CC3)ccc21
    ·	-15
CC(C)N1CN=C2SC(CO)(CO)C(=O)N2C1
    ·	32
COc1ccc(S(=O)(=O)N(C(C)=O)c2ccc3oc(=O)sc3c2)cc1
    ·	25
CC(C)(C)c1ccc(N2C(=N)SCC2=O)cc1
    -3.6	·
CCNC(=S)N1CCn2cccc2C1c1ccc(C)cc1 (stereo not drawn)
    ·	3
Cc1[nH]c2ccc(C(=O)NC(C)C)cc2c1C
    ·	9
CCN(CC)C(=O)c1cc(-c2ccc(Br)cc2)on1
    ·	8
CN1CCN(CC(=O)N2c3ccccc3Sc3ccc(Cl)cc32)CC1
    ·	22
CCn1cnc2cc(NS(=O)(=O)c3ccc(C)cc3)ccc21
    2.0	-1
COc1ccccc1N1CCN(S(=O)(=O)c2cc(Cl)c(Cl)cc2Cl)CC1
    1.7	·
Cc1ccc2nc(-c3ccc4nc(N)sc4c3)oc2c1
    -1.8	11
O=C1OCc2cc(-n3[nH]nnc3=S)ccc21
    1.4	2
COc1ccc(C(=O)CSc2ncccn2)cc1
    ·	-15
C=CCn1c(SCC(=O)O)nnc1-c1ccc(Cl)cc1Cl
    ·	-7
S=c1[nH]c(-c2ccccc2)c(-c2ccccc2)o1
    2.1	·
Cc1cc(C(=O)NCc2ccco2)c2ccccc2n1
    ·	3
Cc1cc(N2CCCC2)nc2ccc(NC(=S)NCCN3CCc4ccccc4C3)cc12
    0.2	23
CCC(=O)NC(C)C12CC3CC(CC(C3)C1)C2 (stereo not drawn)
    0.9	8

Taken from above:
CCn1cnc2cc(NS(=O)(=O)c3ccc(C)cc3)ccc21 @ Sa helicase inh = -1
COc1ccccc1N1CCN(S(=O)(=O)c2cc(Cl)c(Cl)cc2Cl)CC1 @ MgrA DNA FP = 1.7
COc1cc(/C=C2\NC(=S)N(C)C2=O)ccc1OCc1ccccc1Cl @ MgrA DNA FP = 3.2
NNc1ccc(Cl)c(C(=O)O)c1 @ Sa helicase inh = 1
CC(C(=O)Nc1ccc(F)cc1Cl)N(C)CC1COc2ccccc2O1 (stereo not drawn) @ Sa helicase inh = -2
C=CCn1c(SCC(=O)O)nnc1-c1ccc(Cl)cc1Cl @ Sa helicase inh = -7

Next part.
Values run as follows: MgrA DNA FP	Sa helicase inh
Cn1c(=O)c2c(ncn2CC(O)CN2CCN(c3ncccn3)CC2)n(C)c1=O (stereo not drawn)
    ·	-30
CC(C)(C)S(=O)(=O)c1cnc(-c2cnccn2)nc1N
    -1.3	·
COc1ccc(OCC(=O)Nc2cc(OC)ccc2NC(=O)c2ccco2)cc1
    0.1	8
O=C(C1c2ccccc2Oc2ccccc21)N(Cc1nnc(-c2ccccc2Cl)o1)C1CC1
    ·	17
CC(CCc1ccccc1)NC(=O)CN1C(=O)c2ccccc2S1(=O)=O (stereo not drawn)
    -0.6	-13
CCCN1C(=O)/C(=c2\sc3n(c2=O)C(c2cccs2)C(C(=O)OCC)=C(C)N=3)c2ccccc21 (stereo not drawn)
    0.5	·
CCOc1ccc(C(=O)N2CCc3cc(OC)c(OC)cc3C2)cc1
    4.0	10
CNS(=O)(=O)c1cc(Br)ccc1I
    1.6	·
Cc1ccccc1NC(=O)c1cnc(Nc2nc3ccccc3s2)nc1C
    ·	-1
CCC(Oc1ccccc1)C(=O)NCc1ccccn1 (stereo not drawn)
    -0.3	-6
COc1cc2c(cc1OC)C(CC(=O)Nc1ccccc1)C(=O)NN=C2C (stereo not drawn)
    3.5	-1
Cc1cccc(CN2CCN(C(=O)CC(C)C)CC2)c1
    -5.5	10
Cc1nn(C)c(C)c1NC(=O)CC#N
    -3.6	·
CCOc1ccc(NC(=O)CCn2c(=O)sc3ccccc32)cc1
    ·	11
N#Cc1cnn(-c2ncnc3c2cnn3-c2ccccc2)c1N
    ·	14
O=S(=O)(c1ccc(Oc2ncnc3sc4c(c23)CCC4)cc1)N1CCOCC1
    ·	2
O=C(c1ccc(CSc2cccc3cccnc23)cc1)N1CCOCC1
    1.1	7
NC(N)=N/N=C/c1cccs1
    ·	-16
O=C(CCCn1sc2ccccc2c1=O)NC1CCCC1
    0.1	10
COc1ccc(OC)c(S(=O)(=O)N(C)Cc2ccccc2)c1
    ·	-26
O=C(O)CN1CCCC1=O
    -8.9	9
CCCCCOC(=O)C1=C(C)N(C)C(=O)NC1c1cc(Br)c(O)c(OC)c1 (stereo not drawn)
    -2.1	·
Cc1cc2c(cn1)C(=Nc1ccccc1C)c1ccccc1-2
    1.6	10
Cc1cc(C(=O)Nc2cc(C(F)(F)F)ccc2N2CCOCC2)no1
    -3.1	·
NC(CCc1nc2ccccc2[nH]1)C(=O)O (stereo not drawn)
    0.9	11
CCOC(=O)C1CCCCN1C(=O)c1c(SC)nsc1SC (stereo not drawn)
    -0.4	·
O=C(/C=C/c1cccc(Oc2ccccc2)c1)N1CCOCC1
    -2.5	17
C1=CCC(CNCc2ccc3c(c2)OCO3)CC1 (stereo not drawn)
    -3.0	10
Cc1ccc(Cl)cc1N1CCN(C(=O)C2(c3ccccc3)CC2)CC1
    ·	17
Cn1cnc(S(=O)(=O)NCC2CCN(C(=O)OC(C)(C)C)CC2)c1
    -0.1	·

Further records
Values run as follows: MgrA DNA FP	Sa helicase inh
O=C(Cc1ccc(Cl)cc1)Nc1cccc(-c2ccc(N3CCOCC3)nn2)c1
    ·	3
COC(=O)c1ccc(NCC(=O)c2ccccc2)cc1
    8.1	17
Cc1noc(C)c1S(=O)(=O)NCC1COc2ccccc2O1 (stereo not drawn)
    1.9	·
Cc1ccccc1CSc1ncc(C#N)c(N)n1
    ·	-28
Cc1cc(C)n(-c2nncn2/N=C/c2ccc(N3CCCCC3)s2)n1
    ·	-11
CC1CCc2c(sc3ncn(-n4cccc4)c(=O)c23)C1 (stereo not drawn)
    ·	16
CCOC(=O)n1c(CC#N)nc2ccccc21
    ·	-27
CCSC1=NC2(CCNCC2)N=C1c1ccc(OC)cc1
    ·	-20
CCOC(=O)/C(C#N)=C1/C=CN(C)C=N1
    1.4	0
CSC(=S)n1c2ccccc2c2ccccc21
    1.6	-24
CN(C(=O)c1cnccc1C(F)(F)F)c1nc2cc(Cl)ccc2s1
    -4.7	·
COc1cc(OC)cc(C(=O)N(C)C2(c3ccccc3Cl)CCCCC2=O)c1 (stereo not drawn)
    -1.9	9
Cc1ccsc1C(=O)OCC(=O)Nc1ccc2[nH]c(=O)[nH]c2c1
    ·	-16
O=C(CCn1c(=O)oc2ccccc21)Sc1ccc(C(F)(F)F)cc1
    -2.7	·
CCCCS(=O)c1sc2nc3c(cc2c1N)CCCC3 (stereo not drawn)
    ·	6
c1ccc2cc(-c3csnn3)ccc2c1
    0.9	·
Cn1cc(C(=O)N2CCN(Cc3ccccc3)CC2)c2c3ccccc3n(C)c2c1=O
    ·	14
Oc1ccccc1/C=N/c1nc2ccccc2[nH]1
    1.8	-4
COc1ccc(N2CCN(C(=O)CSc3nnc4c5ccccc5n(CC(=O)O)c4n3)CC2)cc1
    -0.3	9
Cc1oc(-n2c(C)ccc2C)c(C#N)c1C(C)O (stereo not drawn)
    ·	10
CC(C)N1CCN(C(=O)c2ccc(F)cc2)CC1
    1.4	-3
Cc1ccc(-c2nc(CS(=O)(=O)CC(=O)NC3CCCCCC3)c(C)o2)cc1
    ·	17
CC(=O)NC(=O)/C(C#N)=N\O
    ·	-18
CCCCNC(=O)c1sc(SCC(=O)OCC)nc1N
    ·	-24
Cc1c(NC(=O)CCN2C(=O)/C(=C/c3c(Cl)cccc3Cl)SC2=S)c(=O)n(-c2ccccc2)n1C
    1.0	·
C1=C(c2cccs2)CC(c2cccs2)=NN=C1c1cccs1
    2.5	7
Cc1cc(C)n2nc(SCCN3C(=O)c4ccccc4S3(=O)=O)nc2n1
    ·	19
Nn1c(COc2ccccc2F)nnc1SCCN1C(=O)c2ccccc2C1=O
    ·	-7
Cc1nc(-c2cc(C(=O)O)n(C)c2)cs1
    ·	9
CCC(C)N(C(=O)CSc1ccc(NC(C)=O)cc1)C1CCS(=O)(=O)C1 (stereo not drawn)
    ·	4

The results go on.
SMILES,MgrA DNA FP,Sa helicase inh
O=C(OCC1CCCCC1)c1n[nH]c2ccccc12,·,-5
c1ccc2c(c1)COC(CN1CCCC1)OC2,·,-35
CC(C)CNC(=O)CSc1ccc(S(=O)(=O)N2CCN(C)CC2)cn1,·,14
O=C(NN1CCOCC1)c1ccc(=O)n(Cc2ccccc2)n1,·,1
COC(=O)c1c(C)[nH]c(C(=O)C(C)N2CCc3ccccc3C2)c1C (stereo not drawn),·,7
O=c1oc(-c2ccccc2)nc2ccc(O)cc12,-1.0,-1
NS(=O)(=O)c1ccc(NC(=S)N2CCC(Cc3ccccc3)CC2)cc1,6.9,10
O=C(COC(=O)C12CC3CC(CC(C3)C1)C2)Nc1ccc(Cl)cc1,-0.3,14
Nc1ncnc2cccc(F)c12,·,-20
Cc1nn(C)cc1C(C(=O)NC1CCCCC1)N(CCc1ccccc1)C(=O)c1cnccn1 (stereo not drawn),-0.8,0
CCSCCOC(=O)C1=C(C)NC2=C(C(=O)CC(c3ccc(OC)cc3)C2)C1c1ccc2c(c1)OCO2 (stereo not drawn),2.4,·
O=C(O)c1c(Nc2nnc(-c3ccncc3)s2)sc2c1CCCC2,·,2

(list continues)
SMILES,MgrA DNA FP,Sa helicase inh
Cc1cc(C)n2nc(SCCCC(=O)N3CCOCC3)nc2n1,·,-6
Cc1ccc(C(=O)Nc2nc3ccc(S(N)(=O)=O)cc3s2)cc1C,·,2
Cc1ccc2nc(SCC(=O)c3ccc(Cl)s3)[nH]c2c1,-5.8,-28
O=C(CSc1nnc2ccccn12)Nc1ccccc1Cl,·,-18
O=C(NCc1ccc2c(c1)OCO2)c1cc(=O)c2ccccc2o1,·,-4
N#Cc1ccc(C(=O)NCC(c2ccco2)N2CCCC2)cc1 (stereo not drawn),·,-1
Cc1ccc(NC(=O)CSc2nc3ccccc3c(=O)n2CC2COc3ccccc3O2)cc1 (stereo not drawn),0.8,8
Nc1c(C(=O)Nc2ccccc2)sc2nc3c(cc12)CCCCC3,1.7,4
Clc1ccc2nc(-c3ccccc3)c(NCc3ccco3)n2c1,-0.2,7
Cc1ccccc1NC(=O)Nc1sc2nc3n(c(=O)c2c1C)CCC(C)CC3 (stereo not drawn),-1.8,-2
COc1ccccc1Nc1ccc(N)cc1,-0.9,5
CCOC(=O)N1CCN(C(=O)c2ccc3c(c2)N(CC)CCS3)CC1,·,30

Structures from the list above containing a COOH group (seven):
SMILES,MgrA DNA FP,Sa helicase inh
NNc1ccc(Cl)c(C(=O)O)c1,-0.6,1
C=CCn1c(SCC(=O)O)nnc1-c1ccc(Cl)cc1Cl,·,-7
O=C(O)CN1CCCC1=O,-8.9,9
NC(CCc1nc2ccccc2[nH]1)C(=O)O (stereo not drawn),0.9,11
COc1ccc(N2CCN(C(=O)CSc3nnc4c5ccccc5n(CC(=O)O)c4n3)CC2)cc1,-0.3,9
Cc1nc(-c2cc(C(=O)O)n(C)c2)cs1,·,9
O=C(O)c1c(Nc2nnc(-c3ccncc3)s2)sc2c1CCCC2,·,2

Following part.
SMILES,MgrA DNA FP,Sa helicase inh
CCOC(=O)c1oc2ccccc2c1NC(=O)COC(=O)CC1Sc2ccccc2NC1=O (stereo not drawn),·,18
C[n+]1c(CF)sc2ccccc21,8.1,1
Cc1onc(-c2ccccc2Cl)c1C(=O)NC(=S)N1CCOCC1,0.6,·
CCOC(=O)N1CCN(C(=O)c2cc3c(s2)-c2ccc(Cl)cc2S(=O)(=O)C3)CC1,·,-30
CC(C)c1ccc(NC(=O)c2ccccc2NC(=O)c2ccccc2)cc1,0.7,·
CC1=C(C#N)C(c2sccc2C)C2=C(CCCC2=O)N1 (stereo not drawn),-1.4,·
CC(C)(C)c1cc(C(C)(C)C)c(O)c(S(N)(=O)=O)c1,0.8,1
CCNC(=O)C1CCN(c2nc3cccnc3s2)CC1,·,19
O=C(NCC1CCCO1)C1CCC1 (stereo not drawn),·,8
CS(=O)(=O)c1ncc(Cl)cn1,-2.6,·
O=c1oc2ccccc2cc1-c1nc(-c2ccc(Cl)cc2)no1,·,-34
Cc1ccc(S(=O)(=O)c2nnn(-c3cccc(Cl)c3)c2C)cc1,1.9,-8

(continued)
SMILES,MgrA DNA FP,Sa helicase inh
CC(=O)Nc1cc(C(=O)NC2CCC(C)CC2)ccc1S(=O)(=O)c1ccc(Cl)cc1 (stereo not drawn),1.1,7
CCCC(=O)NC(=S)c1c(C)n(C)n(-c2ccccc2)c1=O,·,-1
O=C(NC1CCCC1)C1=COCCO1,1.4,6
COc1ccc(C)cc1NC(=O)C(C)N1CCOCC1 (stereo not drawn),-5.7,18
CCCCCOc1ccc2oc(=O)c3c(c2c1)CCCN3C(=O)CN1CCOCC1,·,36
CC(=O)Nc1cccc(-c2cc(=O)c3ccccc3o2)c1O,-2.1,0
Cc1nnc(NC(=O)C23CC4CC(CC(C4)C2)C3)s1,-2.4,-17
CCOc1ccc(CCNC(=O)c2cn(CC)c3nc(C)ccc3c2=O)cc1OCC,0.1,-10

Assay outcomes from PubChem BioAssay.
